# From PubChem BioAssay
# T cruzi repl – T. cruzi replication inhibition; inhibition, % (no concentration beside the values); T. cruzi beta-gal in NIH3T3, luminescence, 90 h; AID 1885; 1.4% of 300,000 active;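 active = mean inhibition across valid replicates above about 55%, limit read from the data; inconclusive = mean below that limit but half or more replicates reach it; inactive = mean below it, under half of replicates reach it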;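 note: signal also drops with host cell toxicity which is not excluded here; 0% = plate median of DMSO wells and 100% = zero luminescence signal; higher percent means less beta-gal luminescence so fewer parasites; stock transfer was 50 nL into about 50 µL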
# Beta cell apopt – blocks beta cell apoptosis; protection from apoptosis, % (test concentration not listed); INS-1E cytokine-induced death, ATP luminescence, 48 h; percent of positive-control rescue, neutral wells zero; 0.8% of 300,000 active;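 active = all replicates at 75% or more, or half of them and the mean; inconclusive = half reach 75% but not the mean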;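 note: 0% = cytokine-treated negative control wells and 100% = positive control rescue; higher means more ATP so stronger rescue from cytokine killing; wells of about 40 µL received 100 nL stock; the first replicate is given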
# RanGTP-Impb inh – inhibitors of RanGTP-importin-beta interaction, primary screen, biochemical, FRET, CFP-Ran, YFP-importin-beta, homogeneous; AID 2216; cell-free CFP-Ran/YFP-importin-beta FRET ratio; 1.1% of 300,000 active; inhibition, % (concentration not given with the values);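 active = most replicates above 15%; inconclusive = exactly half above 15%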;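 note: 0% = DMSO wells and 100% = Ran loaded with GDP instead of GTP; wells of about 40 µL received 100 nL stock; the first replicate is given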
# Calb FLC – affects C. albicans growth with fluconazole | 0.57% of 300,000 active | growth inhibition, % (no concentration beside the values) | AID 1979 | C. albicans CaCi-2 (fluconazole-resistant clinical isolate) + fluconazole, Alamar Blue growth, 48 h;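 active = most replicates above 75%; inconclusive = exactly half above 75%; inactive = most below 75%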;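 note: all wells also contain fluconazole at 8 µg/ml as a sub-toxic cotreatment; 0% = median of DMSO wells and 100% = median of geldanamycin control wells; wells of about 8 µL received 7.5 nL stock; the first replicate is given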
# AF4-AF9 inh – blocks AF4 peptide binding to human AF9; AlphaScreen, biotin-AF4 peptide binding to FLAG-AF9; inhibition, % at 10 µM; 0.47% of 350,000 active; AID 651704;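 active = every replicate reaching a set inhibition limit, whatever the replicate mean, cut at about 25% in these data; inconclusive = mean inhibition reaches that limit but some replicates miss it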;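 note: 0% = plate neutral control median and 100% = total signal loss; the record names both 10 and 1 µM as test concentration; the first replicate is given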
# Target sequence (P42568 whole entry, looked up): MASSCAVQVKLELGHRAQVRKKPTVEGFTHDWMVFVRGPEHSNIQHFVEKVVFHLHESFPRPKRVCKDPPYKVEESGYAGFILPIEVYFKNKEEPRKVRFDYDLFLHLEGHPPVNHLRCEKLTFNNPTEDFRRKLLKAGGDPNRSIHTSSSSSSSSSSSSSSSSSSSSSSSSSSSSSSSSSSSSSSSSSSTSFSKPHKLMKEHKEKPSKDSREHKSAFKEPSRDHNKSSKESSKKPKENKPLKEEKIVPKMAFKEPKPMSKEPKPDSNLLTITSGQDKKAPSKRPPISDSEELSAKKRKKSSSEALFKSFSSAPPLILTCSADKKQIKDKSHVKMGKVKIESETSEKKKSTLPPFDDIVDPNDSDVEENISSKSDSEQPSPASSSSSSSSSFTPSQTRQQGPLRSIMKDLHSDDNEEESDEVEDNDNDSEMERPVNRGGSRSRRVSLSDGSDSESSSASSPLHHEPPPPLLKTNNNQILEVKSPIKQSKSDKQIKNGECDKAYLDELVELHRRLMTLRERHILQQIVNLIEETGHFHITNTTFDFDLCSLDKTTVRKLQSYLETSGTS
# Vif A3G – inhibitors of Vif binding to APOBEC3G peptide, primary screen, biochemical, TR-FRET, GST-Vif 1-94, biotin-A3G peptide, dose response retest (AID 1117319); 0.57% of 260,000 active; TR-FRET GST-Vif / biotin-A3G peptide binding; higher % means a stronger effect; test concentration not given here; strong numbers were not always called active; one-dose inhibition, %; IC50 in µM for titrated hits;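 active = above the screen mean plus three standard deviations and confirmed in dose response; inconclusive = results disagree or hit not tested in dose response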;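 note: Vif residues 1-94 fused to GST binding biotinylated APOBEC3G peptide 110-148; 0% = full assay without inhibitor and 100% = GST in place of GST-Vif; retest series ran down from 100 µM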
# Ecoli rRNA inh – selective bacterial rRNA inhibition in E. coli; 1.6% of 350,000 active; GFP signal change (wild-type ribosome), % (concentration not given with the values); E. coli WT GFP vs humanized-ribosome RFP mutants, fluorescence, 24 h; hits give low values; DMSO median 0, no signal -100; AID 720706;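 active = significant combined selectivity score with lowered wild-type GFP, culture density cut under 30%, mutant RFP and density less affected; inactive = any of these conditions unmet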; note: one replicate is shown; some compounds called inactive have numbers as strong as hits
# A1 inh – inhibitors of the anti-apoptotic protein A1, read as caspase activation; MEF A1-2A-BIM cells, Caspase-Glo 3/7 luminescence, 3 h; percent of clofoctol response, vehicle zero; caspase activation, % (no concentration beside the values); 0.066% of 330,000 active;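 active = over half of replicate activation scores above 10%, or exactly half above 10 with the replicate mean above 10; inconclusive = replicate mean below 10 yet half the replicates above 10; inactive = over half of replicates below 10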;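 note: wells of about 30 µL received 50 nL stock; many hits fall short of the cut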
# Ecoli rRNA inh OD600 – second read-out of Ecoli rRNA inh, no call of its own (marks repeat the call); OD600 change, %; measured here: OD600 growth;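 optical density of the mix in the first replicate; 0 = DMSO median and -100 = no signal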
# Ecoli rRNA inh RFP – recorded beside Ecoli rRNA inh, whose call it bears; RFP signal change, %; measured here: RFP humanized mutant strains;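 first replicate; 0 = DMSO median and -100 = no signal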
# Numbers without * were called inactive; ? = inconclusive; nt = no result given. These rows are one share of the data (hit frequency here may not be typical).
SMILES,T cruzi repl,Beta cell apopt,RanGTP-Impb inh,Calb FLC,AF4-AF9 inh,Vif A3G,Ecoli rRNA inh,Ecoli rRNA inh OD600,Ecoli rRNA inh RFP,A1 inh
N#Cc1ccccc1NC(=O)C1SC(=Nc2ccccc2)C(C(=O)Nc2ccc(Cl)cc2)=C1N (centres undefined),12.3,11.7,5.8,23.0,1.3,14.0%,-4.1,-5.2,-2.7,-0.3
CCN(CC)c1ccc2oc(=O)c(C)nc2c1,36.0,8.8,-87.9,36.4,3.3,2.87µM*,17.9,4.1,13.2,-0.2
CCOCC(=O)Nc1cccc(OC)c1,nt,4.7,nt,-8.4,nt,16.8%,nt,nt,nt,-0.3
Cc1ccc(S(=O)(=O)NN=C2CCN(Cc3ccccc3)CC2)cc1,-12.0,-2.3,?,0.9,nt,nt,nt,nt,nt,1.1
CCO[C@H]1OC(C(=O)N2CCN(C)CC2)=C[C@@H](c2csc3ccccc23)[C@@H]1CCCO,-11.8,0.4,-6.9,-1.9,1.3,2.0%,-9.2,-1.3,-0.6,0.7
CCOC(=O)CN1C(=O)S/C(=C\c2ccc(-c3ccc(C(=O)O)c(Cl)c3)o2)C1=O,-0.9,-1.8,23.0*,9.3,-9.5,nt,-24.1*,-17.9*,0.1*,0.0
O=C(NCCc1ccco1)C(=O)NCCC1CCCCN1S(=O)(=O)c1ccccc1 (centres undefined),-4.0,nt,?,-7.7,0.5,2.7%,1.6,-6.7,5.4,0.6
CCOC(=O)c1c(NC(=O)CSc2nnc(C)o2)sc(C)c1C,-4.8,-1.6,6.5,3.2,-0.9,21.0%,3.2,9.9,1.0,-0.2
CCN(CC(=O)Nc1c(F)cccc1F)C(=O)/C=C/c1ccc(C)o1,-1.2,-8.1,0.2,-2.8,-2.5,10.3%,9.3,7.6,0.6,-0.3
COc1cccc(NC(=O)N2CCCC2)c1,-8.3,-6.5,?,-10.6,-0.4,-3.6%,4.7,6.2,-0.3,1.1
Cc1ccc(C(=O)NCc2ccco2)cc1S(=O)(=O)N1CCCCC1,-4.0,nt,-5.0,23.5,-1.2,23.3%,1.5,3.2,4.6,-0.5
CNS(=O)(=O)c1c(C)cc(C)c(N(C)S(=O)(=O)c2ccccc2)c1C,-11.1,-9.5,-1.9,-2.7,0.3,-9.8%,-27.4,-33.1,-6.2,0.4
COCC(=O)Nc1cc(=O)n(C)c(=O)n1C,-11.3,-1.3,-2.6,-1.1,-11.0,2.2%,4.8,10.6,0.8,-0.8
O=C(CN1CCN(c2ccccc2O)CC1)Nc1ccc2c(c1)OCCCO2,nt,-3.8,nt,nt,-0.1,11.4%,-6.3,-4.5,-0.4,0.7
COC(=O)c1ccc(/C=C2/SC(=S)N(CCC(=O)NCCCN3CCOCC3)C2=O)cc1,-9.8,-4.5,2.7,28.5,1.7,nt,-3.0,-8.1,0.8,-0.5
Cc1cc(NC(=O)CSCC(=O)Nc2nc3c(C)cccc3s2)no1,-13.4,-5.2,3.0,1.7,-3.1,5.0%,1.2,-18.2,-2.5,-0.4
Cc1ccc(S(=O)(=O)CCc2nnc(NC(=O)c3cccs3)s2)cc1,-31.5,-15.6,?,-0.1,nt,?,nt,nt,nt,-0.1
O=S(=O)(NCCSc1ccccn1)c1ccc(Br)cc1,-0.1,nt,1.0,9.8,-20.6,5.3%,-26.1,-27.4,-1.3,0.1
CCn1c(SCC(=O)Nc2cc(NC(C)=O)ccc2OC)nnc1-c1ccncc1,-3.9,nt,0.1,-5.3,nt,0.8%,nt,nt,nt,nt
CC12CCC(c3c(C(=O)O)nn(-c4ccccc4)c31)C2(C)C (centres undefined),-13.4,-1.8,-1.7,29.7,3.6,13.3%,-20.2,-28.7,-4.2,-0.2
O=C(C[C@H]1C/C=C\C[C@@H](Cc2ccc(F)cc2)C(=O)OC[C@H]2CCCN2C1=O)N[C@H](CO)Cc1ccccc1,nt,0.3,nt,nt,-2.1,nt,-1.0,-3.7,-1.7,1.1
Cc1nc2nc(SCC(=O)NCCCN3CCCCCC3)nn2c(C)c1Cc1ccccc1Cl,18.5,-2.0,-3.4,-1.6,16.7,-9.3%,-1.8,7.1,19.6,0.4
CC1=CC(=C(C#N)C#N)c2ccccc2N1C,5.6,7.7,-0.7,-2.1,-1.1,-10.6%,20.2,-0.2,-3.3,0.0
Cc1ccnc(N2CCCC(C(=O)Nc3ccc(C)c(C)c3)C2)n1 (centres undefined),2.1,7.9,-2.1,9.1,-3.8,nt,4.9,10.9,2.7,1.5
CCOC(=O)C1=C(C)NC2=C(C(=O)C(C(=O)OCC)C(c3ccc(OC)cc3)C2)C1c1ccccn1 (centres undefined),4.5,-8.5,18.0*,-3.3,nt,19.9%,nt,nt,nt,0.6
CC(=O)c1ccc(NC(=O)CSc2ccc(-c3ccco3)nn2)cc1,13.3,6.1,3.0,-4.2,-0.1,-1.6%,1.5,0.4,-1.3,-1.1
CC(=O)c1c(C)[nH]c(C(=O)COC(=O)Cc2ccccc2F)c1C,nt,3.1,nt,nt,1.0,nt,-14.0,-10.2,3.1,1.4
COc1cccc(Nc2nnc(SCC(=O)N3CCOCC3)s2)c1,-6.7,nt,-0.9,-1.5,nt,2.9%,nt,nt,nt,nt
CC1CCCCN1C/C=C/c1ccccc1[N+](=O)[O-] (centres undefined),7.9,-0.1,2.8,26.9,nt,3.4%,nt,nt,nt,2.3
O=C(CSc1cccc[n+]1[O-])Nc1ccc2c(c1)OCCO2,-3.1,nt,1.1,5.7,0.5,2.4%,9.1,7.6,-0.9,-0.1
COc1ccc(S(=O)(=O)NCC(=O)N(CC(=O)NCC2CCCO2)Cc2ccccc2)cc1 (centres undefined),-4.4,-0.9,-3.0,-12.4,-1.3,nt,2.7,-6.3,-4.0,-0.1
COc1ccc(C(=O)CC(=O)C(=O)Nc2ccc(C)cc2Cl)cc1,4.9,2.6,4.6,-13.0,2.6,2.6%,-0.2,0.4,-2.1,-0.1
CNC(=O)CSc1ncnc2c1cnn2-c1ccccc1,-12.9,3.2,-3.8,-25.1,-0.8,nt,-3.4,1.0,-0.3,-5.0
CCN(CC(=O)Nc1ccc2c(c1)OCCO2)CC(=O)Nc1ccc2c(c1)OCO2,5.1,3.1,?,-8.9,-0.7,-2.7%,24.0,13.9,2.5,0.5
Cc1cnc(NS(=O)(=O)c2ccccc2)c(Br)c1,2.2,-2.3,0.2,5.2,10.0,-0.9%,-10.4,-1.4,-0.3,0.4
Cc1ccc(C)c(OCCC(=O)Nc2ccc3c(c2)OCO3)c1,nt,3.9,nt,nt,-0.2,-1.5%,-2.0,-27.6,-1.7,0.3
COc1ccc(S(=O)(=O)NNC(=O)c2sccc2-n2cccc2)cc1,-0.2,-1.7,-0.9,9.7,-3.1,66.7%,-8.9,-7.7,-5.3,1.4
CCOC(=O)C(C)Sc1nnc2c3ccccc3n(C)c2n1 (centres undefined),-3.5,-3.9,2.1,-6.0,-5.3,nt,-15.1,-9.7,-0.6,-0.2
O=C1CCCC/C1=C\Nc1ccccc1C(=O)O,1.4,-0.6,4.8,13.8,nt,9.7%,nt,nt,nt,-1.1
O=C(Nc1c(C(=O)Nc2cccc3ccccc23)cnn1-c1ccccc1)c1ccco1,19.6,4.9,0.6,1.2,nt,15.3%,-40.2,-38.0,-10.6,-0.4
COc1cc(CNCc2cccnc2)ccc1OCc1ccccc1,-5.8,-0.1,-2.2,-35.5,4.9,nt,2.5,7.5,1.7,0.2
O=S(=O)(c1ccc2c(c1)OCCO2)N1CCN(c2nc3ccccc3s2)CC1,13.2,-3.2,?,-4.9,-41.0,-1.7%,15.6,9.4,8.3,-2.4
OCC1(CCCc2ccccc2)CCN(Cc2cc(F)ccc2F)CC1,30.7,7.4,3.5,-17.5,0.1,1.2%,1.7,0.6,1.4,-0.3
O=c1oc2ccc(Cl)cc2nc1/C=C(\O)c1cccs1,-0.7,0.2,3.5,7.5,-0.1,nt,-17.5,-28.6,8.3,0.7
Cc1cccc(C)c1NC(=O)CN(C)CC(=O)Nc1ccccc1Br,-8.1,-0.8,0.7,-29.4,nt,-0.6%,nt,nt,nt,-1.1
COc1ccc(N2C(=O)CC(NC3CCCCNC3=O)C2=O)cc1 (centres undefined),-14.5,-2.1,5.5,-3.4,nt,13.9%,nt,nt,nt,1.4
Cn1ccnc1SCC(=O)Nc1cccc([N+](=O)[O-])c1,-7.2,-1.0,5.4,42.6,1.9,-10.2%,5.9,12.3,1.2,0.2
Cc1ccccc1CNCCCSc1ncccn1,-0.6,0.2,-0.7,8.5,0.9,nt,12.3,7.0,1.6,0.3
CCn1c(=N)n(CC(O)c2ccccc2)c2ccccc21 (centres undefined),-3.8,-3.8,-0.6,-23.1,nt,2.0%,nt,nt,nt,0.7
COc1ccc2sc(NCc3ccccc3)nc2c1,8.1,-0.2,-1.9,-19.0,2.6,0.1%,7.7,8.7,0.3,-4.6

# Continuation:
SMILES,T cruzi repl,Beta cell apopt,RanGTP-Impb inh,Calb FLC,AF4-AF9 inh,Vif A3G,Ecoli rRNA inh,Ecoli rRNA inh OD600,Ecoli rRNA inh RFP,A1 inh
COc1ccc(OCC(=O)Nc2c3c(nn2C(C)(C)C)CSC3)cc1,3.7,-8.6,?,-33.2,-3.1,4.5%,12.0,18.1,-0.9,0.6
C[C@H]1CCC[C@]2(O[C@H](CCO)C[C@H](O)[C@H]2O)O1,-27.1,-7.0,9.4,-6.9,-35.7,nt,7.1,10.3,4.7,0.3
CCN1CCN(S(=O)(=O)c2ccc(Cl)c(C(=O)N(C)Cc3ccccc3)c2)CC1,nt,-2.6,nt,nt,-9.8,-1.7%,nt,nt,nt,0.2
CCN(CC)S(=O)(=O)c1cccc(C(=O)NNC(=O)c2ccc3[nH]c(=O)c(=O)[nH]c3c2)c1,3.2,2.1,1.2,-7.3,-4.7,nt,2.2,-2.1,-0.6,-0.3
Cc1ccc(S(=O)(=O)/N=C/c2cc(Br)ccc2O)cc1,-3.5,1.7,-1.9,6.1,-2.3,-10.6%,9.8,7.0,-1.7,-1.1
CN(C)CC1CCCCC1C1(O)c2ccccc2CSc2sccc21 (centres undefined),7.1,5.1,-0.6,nt,nt,0.3%,nt,nt,nt,0.0
O=c1c2ccccc2ncn1-c1ccc(Cl)cc1Cl,-8.2,-7.2,-0.1,7.3,0.0,3.7%,-6.3,-8.3,-2.7,0.2
CN(CCc1ccccn1)C(=O)CCC1CCCN(C(=O)c2c3c(nn2C)CCCC3)C1 (centres undefined),8.6,-1.0,-6.1,-10.3,0.2,-5.8%,7.6,6.7,-0.4,2.8
COc1ccc(CN2CCN(CCSc3ccc(C)cc3)CC2)c(OC)c1OC,48.2,123.0*,3.7,12.8,-0.7,nt,18.9,10.4,4.5,-1.1
